nsP2pro primary – blocks chikungunya virus nsP2 protease peptide cleavage. hit rate 1.1% among 31,000. Q8JUX6. AID 1964107. FRET peptide cleavage, nsP2pro, fluorescence 1 h. Potency, µM (doses to about 24.9 µM), without a hit: top-dose activity change, negative = inhibition, usual class: inhibitors; active means well fitted inhibition curve with a large enough effect; inconclusive means small, poorly fitted or top-dose-only effect; inactive means no such curve, though single readings can be large or run the other way; note: nearly all actives have a fitted effect of over 60% in size; a reference inhibitor and vehicle were the controls
* = called active by the depositor; i = inactive; ? = inconclusive; & = joins results of further samples; [ ] = another dose, or the depositor's remark. % is set by controls: 0 for no effect and ±100 for the full control effect; potency is the fitted concentration of half-maximal effect. These rows are one share of the data; count on the stated rates, not on these rows.

SMILES	nsP2pro primary
COCCN1C(=O)CCc2cc(NC(=O)c3ccc(Cl)s3)ccc21	-11%
Cc1nn2c(-c3ccccc3)cc(-c3ccccc3)nc2c1-c1ccc(Cl)cc1	5%
CCOCCCNC(=O)C(c1ccc(OC)cc1)N(Cc1ccc2c(c1)OCO2)C(=O)c1ccccc1O (stereo unspecified)	-14%
O=c1oc2c3c(ccc2c2ccccc12)OCN(Cc1ccc(Cl)cc1)C3	?
CCCCOc1ccccc1NC(=O)CC1Sc2ccccc2NC1=O (stereo unspecified)	-17%
CCOc1ccc(CN2C(=O)c3ccccc3Sc3ccc(C(=O)NC4CCC(C)CC4)cc32)cc1 (stereo unspecified)	4%
Cn1nnnc1Sc1ncnc2scc(-c3cccc(C#N)c3)c12	2%
CCCn1c(-c2ccc(F)cc2)nc2c(N3CCN(CCC(=O)OCC)CC3)nc(C)nc21	-1%
O=C(/C=C/c1cccc(S(=O)(=O)Nc2ccccc2)c1)NO	?
CCOc1ccc(-c2cn3c(n2)sc2cc(C(=O)NC4CCCc5ccccc54)ccc23)cc1 (stereo unspecified)	-17%
CCc1ccc(S(=O)(=O)c2nnn3c2nc(NC2CCCCCC2)c2sccc23)cc1	-18%
CC1(C)S[C@@H]2[C@H](NC(=O)C(C(=O)O)c3ccsc3)C(=O)N2[C@H]1C(=O)O (stereo partly specified)	-10%
O=C(CCc1cc2n(n1)CCCNC2)N1CCCC(c2nnc3ccccn23)C1 (stereo unspecified)	?
CC(=O)N1CCCN(C(=O)c2ccc3c(c2)NC(C)(CCCCc2ccccc2)CO3)CC1 (stereo unspecified)	-6%
CC(C)CCSc1nnc2n(-c3ccccc3)c(=O)c3c4c(sc3n12)CC(C)CC4 (stereo unspecified)	-25%
CCC(=O)N1CCc2cc(Br)cc(S(=O)(=O)CCC(=O)NCCc3ccccc3Cl)c21	-18%
Cc1cc(=O)n2nc(N3CCC(C(=O)NCCCOC(C)C)CC3)sc2n1	-25%
C/C=C1\[C@H](O[C@@H]2O[C@H](CO)[C@@H](O)[C@H](O)[C@H]2O)OC=C(C(=O)O)[C@H]1CC(=O)OCCc1ccc(O)cc1	?
Fc1ccc(CNc2nc(-c3ccccc3C(F)(F)F)nc3ccccc23)cc1	2%
Cc1ccccc1N1CCN(C(=O)c2nnn3c2COC(c2ccc(Cl)cc2)C3)CC1 (stereo unspecified)	-15%
O=S(=O)(c1ccccc1)N1CC(Oc2ccc(-c3noc(C4CC4)n3)cc2)C1	-3%
Cc1ccc(NC(=O)c2ccc(=O)n(CC(=O)Nc3c(C)cc(C)cc3C)n2)cc1	-14%
Nc1ccc(C(=O)O)cc1	-19%&0%
Cc1ccc(/C=C2\CNC/C(=C\c3ccc(C)cc3)C2=O)cc1	-1%
O=c1c2c(CO)c(-c3ccccc3)nn2ccn1Cc1cc(=O)n2ccccc2n1	i
COc1ccc(-c2c3c(nc4sc(C(=O)Nc5ccccc5F)c(N)c24)CC(C)(C)CC3=O)cc1	-19%
COc1ccc(NC(=O)N2C[C@@H]3C[C@H](C2)c2ccc(NS(=O)(=O)c4cccc(F)c4)c(=O)n2C3)cc1	-21%
Cn1nc(-c2cccc(F)c2)c(N2CCCCC2)c1NC(=O)Nc1ccccc1	-9%
CCOc1ccccc1NC(=O)C(c1ccccc1)N1Cc2ccccc2C1=O (stereo unspecified)	-10%
CCOc1ccccc1NC(=O)c1c(NC(=O)C(C)Oc2cccc(Cl)c2)sc2c1CCCCC2 (stereo unspecified)	-20%
O=C(c1cccs1)N1CCC2(CC1)CN(C1CCC1)CC2CO (stereo unspecified)	2%
Cc1ccc(-n2c(=O)c3sccc3n(Cc3cc(=O)n4ccccc4n3)c2=O)cc1	-5%
Cc1nsc(NC(=O)N2CCC(CO)CC2)n1	4%
O=C1N(c2ccccc2)c2ccccc2C12CCN([S+](=O)([O-])c1cccc(C(F)(F)F)c1)C2 (stereo unspecified)	i
C=C1[C@H]2[C@H](O[C@@H]3O[C@H](COC(=O)/C=C/c4cc(OC)c(O)c(OC)c4)[C@@H](O)[C@H](O)[C@H]3O)OC=C(C(=O)O)[C@H]2C[C@@H]1O	-3%[10 µM]
Cc1ccc(NC(=O)N2CCC(n3c(C)nc4cccnc43)CC2)c(Cl)c1	-6%

The closing 2 compounds of the section before open the next one.
SMILES	nsP2pro primary
C=C1[C@H]2[C@H](O[C@@H]3O[C@H](COC(=O)/C=C/c4cc(OC)c(O)c(OC)c4)[C@@H](O)[C@H](O)[C@H]3O)OC=C(C(=O)O)[C@H]2C[C@@H]1O	-3%[10 µM]
Cc1ccc(NC(=O)N2CCC(n3c(C)nc4cccnc43)CC2)c(Cl)c1	-6%
CN(CCc1ccccn1)[C@@H]1[C@H](O)[C@H](CO)O[C@@H]1CNC(=O)c1ccc(C(F)(F)F)cc1	-21%
Cc1c(NC(=O)c2nc3ccccc3n(C)c2=O)cccc1[N+](=O)[O-]	-12%
COCC(=O)N1CCC(C(=O)NC(C)c2ccc3c(c2)OCCCO3)CC1 (stereo unspecified)	-3%
CCCCCOC(=O)CSc1nc2sc3c(c2c(=O)n1-c1ccccc1)CC(C)(CC)OC3 (stereo unspecified)	-30%
COC(=O)c1ccc2c(c1)S(=O)(=O)N=C2Sc1cc(C)ccc1C	4%
CCCN1CCN(CCCNC(=O)c2ccc3nc(Cc4ccccc4)oc3c2)CC1	2%
CCN(CC)c1cc(CCC(=O)NCCCN2CCOCC2)ccn1	i
CS(=O)(=O)N1CCOc2ccc(CCC(=O)N3CCC(C(N)=O)CC3)cc2C1	-2%
CNC(=O)N1C[C@@H](CN(C)C)[C@H](NC(=O)c2ccsc2)C1	-1%
COc1cc(/C=C/C(=O)O[C@H]2[C@H](O)[C@@H](CO)O[C@@]2(CO)O[C@H]2O[C@H](CO)[C@@H](O)[C@H](O)[C@H]2O)cc(OC)c1O	-14%[10 µM]
COc1cc2nc(N3CCCCC3)nc(NC3CCN(C)CC3)c2cc1OC	18%
CC1=CC(=O)CC(C)(C)C1/C=C/C(C)OC1OC(COC2OCC(O)C(O)C2O)C(O)C(O)C1O (stereo unspecified)	-1%[10 µM]
Cc1ccc(-c2cc(C(=O)Nc3ccc(-n4cccn4)cc3)c3ccccc3n2)cc1C	i
CCCCN1C[C@H](O)[C@@H](O)[C@H](O)[C@H]1CO	3%
Cn1cc(S(=O)(=O)c2ccccc2)c(=O)c2cc(F)c(N3CCOCC3)cc21	1%
Cc1ccc(NC(=O)c2ccc(CN3CCNCC3)cc2)cc1Nc1nccc(-c2cccnc2)n1	92%[activator]
O=C(c1cccc([N+](=O)[O-])c1)N1c2ncnn2C2(CCCCC2)[C@@H]2CCCC[C@@H]21	-18%
Cc1ccc(C2Nc3cccc4cccc(c34)N2)s1	i
O=C1c2ccccc2C(=O)N1Cc1ccccn1	i
CCCCn1c(=N)c(S(=O)(=O)c2ccccc2)cc2c(=O)n3cccc(C)c3nc21	-11%
CN(Cc1ccc(-c2ccccc2)cc1)C(=O)Cc1ccccn1	i
COc1ccc(-c2noc(CSc3nnc(C)n3-c3ccc(C)c(C)c3)n2)c(OC)c1	-8%
Cc1ccc(CN(Cc2ccco2)C(=O)c2ccccc2Br)o1	-22%
CN(Cc1cccn1C)C(=O)C1CC1	?
CNC(=O)[C@H](Cc1ccccc1)NC(=O)[C@H](CC(C)C)[C@H](CSc1cccs1)C(=O)NO	-27%&-22%
C[C@H]1[C@H](C)CC[C@]2(C(=O)O)CC[C@]3(C)C(=CCC4[C@@]5(C)C[C@@H](O)[C@H](O)C(C)(C)C5CC[C@]43C)[C@H]12 (stereo partly specified)	?
CC(C)(C)NC(=O)N1CCC(C(=O)Nc2ccc([S+](=O)([O-])Nc3nccs3)cc2)CC1	i
O=C(Cn1cnc2c(nc3n2CCCCC3)c1=O)Nc1cccc(C(F)(F)F)c1	-24%
COc1cc(-c2cc3n(C)c(C)c(CCC(=O)O)c(=O)n3n2)cc(OC)c1OC	-20%
Clc1ccc2nsnc2c1NC1=NCCN1	8%
CC(=O)N1CCN(c2ccc(NCc3cccc(C)c3)cc2)CC1	i
COc1ccc(CN(C)C2CCCN(CCc3ccccc3)C2)c(OC)c1OC (stereo unspecified)	i
COc1ccc(-n2cc(C(=O)N(CCN(C)C)Cc3ccccc3)c3ccccc3c2=O)cc1	-3%
CN1C(C(=O)Nc2ccccn2)=C(O)c2sccc2S1(=O)=O	-3%
CN(C)c1ccc(-c2noc([C@@H]3CCCN3C3CCOCC3)n2)cn1	i
CC1=C(C(=O)Nc2cccc(C(F)(F)F)c2)C(c2ccccn2)n2ncnc2N1 (stereo unspecified)	-16%

13 entries out of the list, arranged by heavy-atom count, smallest number first.
SMILES	nsP2pro primary
CN(Cc1cccn1C)C(=O)C1CC1	?
Clc1ccc2nsnc2c1NC1=NCCN1	8%
O=C1c2ccccc2C(=O)N1Cc1ccccn1	i
Cc1ccc(C2Nc3cccc4cccc(c34)N2)s1	i
CN1C(C(=O)Nc2ccccn2)=C(O)c2sccc2S1(=O)=O	-3%
Cc1ccc(CN(Cc2ccco2)C(=O)c2ccccc2Br)o1	-22%
CC(=O)N1CCN(c2ccc(NCc3cccc(C)c3)cc2)CC1	i
CN(C)c1ccc(-c2noc([C@@H]3CCCN3C3CCOCC3)n2)cn1	i
O=C(Cn1cnc2c(nc3n2CCCCC3)c1=O)Nc1cccc(C(F)(F)F)c1	-24%
CCCCn1c(=N)c(S(=O)(=O)c2ccccc2)cc2c(=O)n3cccc(C)c3nc21	-11%
CC(C)(C)NC(=O)N1CCC(C(=O)Nc2ccc([S+](=O)([O-])Nc3nccs3)cc2)CC1	i
CNC(=O)[C@H](Cc1ccccc1)NC(=O)[C@H](CC(C)C)[C@H](CSc1cccs1)C(=O)NO	-27%&-22%
C[C@H]1[C@H](C)CC[C@]2(C(=O)O)CC[C@]3(C)C(=CCC4[C@@]5(C)C[C@@H](O)[C@H](O)C(C)(C)C5CC[C@]43C)[C@H]12 (stereo partly specified)	?

Continuation:
SMILES	nsP2pro primary
O=c1cc(-c2cccnc2)nc(-c2cccc(CN3CCNCC3)c2)[nH]1	0%
CN(C)C(=O)c1cccc(-c2csc(N3CCC(C(N)=O)CC3)n2)c1	-7%
CCCc1nc(C)cc(N2CCC3(CC2)CNC(C(=O)O)C3)n1 (stereo unspecified)	2%
COc1cccc(-c2ccc3c(N)c(C(=O)Nc4cc(F)ccc4F)sc3n2)c1	0%
Cc1ccc2nc(-c3ccc(C)c(NC(=O)Cc4ccccc4)c3)oc2c1	-23%
CCCC(C)NC(=O)c1ccc(Cl)c(Cl)c1 (stereo unspecified)	-3%&-6%
C/C=C/C1OC2=C(C(=O)OC2(C)O)C(O)C1O (stereo unspecified)	?
CCOc1cccc(CNC(=O)c2nnn3c2COC(c2ccc(C)cc2)C3)c1 (stereo unspecified)	5%
Cc1c(Cl)cccc1NC(=O)Nc1ccc2snnc2c1	-14%
COc1ccc(C(=O)N(C)Cc2cccn2C)cc1	-21%[39.2 µM]
O=C(NCc1ccccc1)c1ccccc1OC1CN(C2CCC2)C1	i
CCCCC(=O)OC1=CN(Cc2ccccc2)S(=O)(=O)c2ccccc21	-26%
CCCS(=O)(=O)N1CCCC1C(=O)Nc1ccccc1-c1ccc(OC)cc1 (stereo unspecified)	2%
Cc1cccc(N2C(=O)N(Cc3ccc(C(C)(C)C)cc3)c3ccccc3S2(=O)=O)c1	-3%
Cc1cccc(NC(=O)CSc2nc(-c3cccc(C)c3)nc3c2Cc2c(CO)cnc(C)c2O3)c1	-11%
CCc1ccccc1NC(=O)c1cc(S(=O)(=O)N(CC)c2ccccc2)ccc1F	-5%
CC(CNC(=O)Cn1c(-c2cccs2)cc2cc(Cl)ccc21)c1ccccc1 (stereo unspecified)	-14%
CNC(=O)c1ccc(CN2CC3(CCN(C(C)=O)CC3)CC2C(=O)O)o1 (stereo unspecified)	?
CNc1nc(C#N)c(-c2cccc3ccccc23)o1	-4%
O=C(NC1CCCCC1)N[C@H]1CO[C@H]2[C@@H]1OC[C@H]2O	-5%[39.2 µM]
CCCn1c(-c2ccc(F)cc2)nc2c(N3CCCN(Cc4ccccc4)CC3)nc(C)nc21	-1%
O=C(NCCCNC(=O)c1ccc[nH]c1=O)c1cc(-c2ccccc2)on1	1%
COC(=O)C1=C(C)NC(C)=C(C(=O)OC(C)(C)CN(C)CCC(c2ccccc2)c2ccccc2)C1c1cccc([N+](=O)[O-])c1 (stereo unspecified)	9%
CC1=CC(=O)CC(C)(C)C1(O)CCC(C)O (stereo unspecified)	?
COc1cccc(N2C(=O)C(CC(=O)Nc3ccc(F)cc3)N(CCC3=CCCCC3)C2=O)c1 (stereo unspecified)	-7%
COc1ccc(-c2nn(C)c3sc(C(=O)N4CCN(c5ccccc5F)CC4)cc23)cc1OC	3%
CC(=O)c1cccc(NC(=O)CCS(=O)(=O)c2cc3c(cc2C)NC(=O)CO3)c1	-14%
Cc1ccc(CNC(=O)CCSCc2cnn(-c3ccccc3)c2-n2cccc2)cc1	-5%
FC(F)(F)c1cccc(N2CCN(Cc3nnc(-c4ccccc4)o3)CC2)c1	?
O=C(CC1N=C2c3ccccc3N=C(SCC(=O)Nc3ccccc3F)N2C1=O)NCc1cccs1 (stereo unspecified)	-16%
O=C(c1ccc(Cl)cc1)N1CCC(N2CCOC2=O)CC1	-12%
O=c1c(O[C@@H]2OC([C@H](O)CO)[C@H](O)[C@H]2O)c(-c2ccc(O)c(O)c2)oc2cc(O)cc(O)c12 (stereo partly specified)	24%
CCCOc1ccccc1C(=O)Nc1nc2c(s1)CCCC2	13µM*
CC[N+](CC)(CC)CCOc1cccc(OCC[N+](CC)(CC)CC)c1OCC[N+](CC)(CC)CC	-4%
COc1ccccc1-c1noc(CCCC(=O)NCc2ccco2)n1	?

Copied from the list.
Under nsP2pro primary, `CC[N+](CC)(CC)CCOc1cccc(OCC[N+](CC)(CC)CC)c1OCC[N+](CC)(CC)CC` shows -4%
Under nsP2pro primary, `O=C(CC1N=C2c3ccccc3N=C(SCC(=O)Nc3ccccc3F)N2C1=O)NCc1cccs1` (stereo unspecified) shows -16%
Under nsP2pro primary, `O=c1c(O[C@@H]2OC([C@H](O)CO)[C@H](O)[C@H]2O)c(-c2ccc(O)c(O)c2)oc2cc(O)cc(O)c12` (stereo partly specified) shows 24%

High-throughput results from PubChem BioAssay.
